From PubChem
Vif TR-FRET: inhibitors of Vif binding to APOBEC3G peptide, primary screen, biochemical, TR-FRET, GST-Vif 1-94, biotin-A3G peptide, dose response retest (AID 1117319) | TR-FRET GST-Vif / biotin-A3G peptide binding; higher % means a stronger effect; test concentration not given here; strong numbers were not always called active | inhibition, %, or IC50 in µM where a hit was titrated | 260,000 compounds, 0.57% hits;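 active means above the screen mean plus three standard deviations and confirmed in dose response; inconclusive means results disagree or hit not tested in dose response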;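 further: Vif residues 1-94 fused to GST binding biotinylated APOBEC3G peptide 110-148; 0% = full assay without inhibitor and 100% = GST in place of GST-Vif; retest series ran down from 100 µM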
UCH37 inh: inhibitors of human deubiquitinating enzyme UCH37; Q9Y5K5; purified proteasome/UCH37, Ub-AMC cleavage fluorescence; inhibition, % (test concentration not listed); 330,000 compounds, 0.33% hits; AID 588478;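 active means mean of two replicates above 20%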;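 further: 0% = compound-free wells with enzyme and 100% = wells lacking proteasome; stock transfer was 100 nL into about 20 µL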
Target sequence (Q9Y5K5 whole entry, looked up): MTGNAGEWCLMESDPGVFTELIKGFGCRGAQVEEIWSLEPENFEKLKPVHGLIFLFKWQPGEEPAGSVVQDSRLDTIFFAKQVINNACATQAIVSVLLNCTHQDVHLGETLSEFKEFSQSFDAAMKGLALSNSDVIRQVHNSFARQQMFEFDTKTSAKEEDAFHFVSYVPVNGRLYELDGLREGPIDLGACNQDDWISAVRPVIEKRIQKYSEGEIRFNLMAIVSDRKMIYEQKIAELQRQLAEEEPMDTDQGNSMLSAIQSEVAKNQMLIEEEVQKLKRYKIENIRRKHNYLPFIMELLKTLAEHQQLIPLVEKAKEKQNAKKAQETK
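System: Proteasome-associated human UCH37 deubiquitinase; Input: 0.15 nM proteasome in added enzyme buffer; Also added: Ub-AMC substrate from 1 µM stock; Incubation: 30 min compound-proteasome preincubation then 25 min substrate reaction, room temperature; Detection: fluorescence, ex 355 nm, em 460 nm; Read-out: % inhibition of Ub-AMC cleavage fluorescence; Benchmarks: no-proteasome and no-compound wells.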
FGF22 binding: FGF22 (human) thermal shift binding; recombinant FGF22 thermal shift, SYPRO orange fluorescence; percent of sucrose octasulfate shift, DMSO zero; calls only at 9.99 µM; 340,000 compounds, 1.5% hits;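 active means melting point raised past a set limit in the mean and every replicate; inconclusive means no clear call; three in four hits are not shown here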
Target sequence (Q9HCT0 whole entry, looked up): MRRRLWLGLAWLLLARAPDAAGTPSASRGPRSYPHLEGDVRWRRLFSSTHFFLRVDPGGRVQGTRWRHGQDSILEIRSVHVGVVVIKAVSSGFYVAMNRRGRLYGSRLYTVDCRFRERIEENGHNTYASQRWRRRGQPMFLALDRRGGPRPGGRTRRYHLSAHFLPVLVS
HNF4A DNA FP: change in binding of human HNF4 alpha to DNA; activity change, % at 10 µM; HNF4a-FITC DNA binding, fluorescence polarization, 1 h; 360,000 compounds, 0.3% hits; AID 1224865; P41235; in the data active means activity change above about 30%, passing the limit was not always enough;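 further: controls were the assay level and a saturating level of protein; the project sought stronger binding though the title names inhibitors; some compounds called inactive have numbers as strong as hits; positive values seem to mean higher polarization but the record does not say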
Target sequence (P41235 whole entry, looked up): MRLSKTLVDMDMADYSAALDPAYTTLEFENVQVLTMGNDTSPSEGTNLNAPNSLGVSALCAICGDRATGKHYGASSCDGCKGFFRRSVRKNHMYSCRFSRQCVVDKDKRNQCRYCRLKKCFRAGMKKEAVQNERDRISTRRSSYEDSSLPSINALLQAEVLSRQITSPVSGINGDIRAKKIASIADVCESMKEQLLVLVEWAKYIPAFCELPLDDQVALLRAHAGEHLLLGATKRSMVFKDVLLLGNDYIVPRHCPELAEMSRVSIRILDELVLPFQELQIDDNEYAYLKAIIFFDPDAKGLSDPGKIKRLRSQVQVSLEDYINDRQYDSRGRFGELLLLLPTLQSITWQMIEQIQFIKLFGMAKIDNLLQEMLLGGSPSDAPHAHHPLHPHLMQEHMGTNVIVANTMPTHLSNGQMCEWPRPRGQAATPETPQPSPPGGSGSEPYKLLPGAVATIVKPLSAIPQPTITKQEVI
MLL AF4-AF9 inh: inhibitors of human MLL-AF4/AF9 interaction. AID 651704. AlphaScreen, biotin-AF4 peptide binding to FLAG-AF9. inhibition, % at 10 µM. 350,000 compounds, 0.47% hits;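 active means every replicate reaching a set inhibition limit, whatever the replicate mean, cut at about 25% in these data; inconclusive means mean inhibition reaches that limit but some replicates miss it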;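 further: 0% = plate neutral control median and 100% = total signal loss; the record names both 10 and 1 µM as test concentration; the first replicate is given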
RanGTP-Impb inh: disruptors of Ran-importin-beta complex formation – biochemical, FRET, CFP-Ran, YFP-importin-beta, homogeneous, primary screen. cell-free CFP-Ran/YFP-importin-beta FRET ratio. inhibition, % (test concentration not listed). 300,000 compounds, 1.1% hits. AID 2216;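 active means most replicates above 15%; inconclusive means exactly half above 15%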;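 further: 0% = DMSO wells and 100% = Ran loaded with GDP instead of GTP; wells of about 40 µL received 100 nL stock; the first replicate is given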
E coli growth: E. coli growth inhibition; 330,000 compounds, 0.21% hits; OD600 absorbance (concentration not given with the values); Escherichia coli growth, OD600, 23 h; active compounds read low;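 active means OD600 absorbance below the run mean of sample wells minus 3.6 SD, in any replicate, cut at about 0.56 in these data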;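 further: stock transfer was 300 nL into about 60 µL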
Starred values were filed as active, the others as inactive; i = inactive; ? = inconclusive; nt = not tested or not shown; & = joins results of further samples.

SMILES	Vif TR-FRET	UCH37 inh	FGF22 binding	HNF4A DNA FP	MLL AF4-AF9 inh	RanGTP-Impb inh	E coli growth
COc1ccc(NC(=O)Nc2ccc3c(c2)C(=O)N([C@H](C)CO)C[C@H](C)[C@@H](CN(C)S(=O)(=O)c2ccc(OC)cc2)O3)cc1	nt	0.4	i	-5.1	4.4&-73	nt	0.76
COC(=O)[C@@]1(C)[C@H]2C(=O)N(Cc3ccccc3)C(=O)[C@H]2[C@H]2CN(C)C(=NC3CCCCC3)N21	-5%	1.4	nt	-0.7	-0.7	nt	0.67
O=C(NC1CC1)C1=C[C@H](c2c[nH]c3ccccc23)C[C@H](OCCCCO)O1	24%	0.7	i	3.0	-6.0	4.0	nt
CC1c2cc3c(cc2CCN1C(=O)c1ccc(C(F)(F)F)cc1)OCCCO3 (centres undefined)	0%	4.2	i	2.2	0.1	0.2	0.69
COc1ccc(OC)c(C2C(C(=O)c3ccc(C)o3)=C(O)C(=O)N2c2cc(C)on2)c1 (centres undefined)	nt	9.3	i	-2.5	0.5	1.7	0.69
O=C(NNC(=O)c1csc(N2CCOCC2)n1)c1ccc(=O)[nH]c1	-12%	7.1	i	-24	-1.2	nt	0.68
COc1cc(C(O)c2nc3ccccc3n2C(C)C)cc(OC)c1OC (centres undefined)	nt	0.9	i	-1.9	-4.1	3.8	0.65
COc1ccc(-c2cccc(-c3cc(=O)oc4cc5c(cc34)OCO5)c2)cc1	-3%	-97	i	0.6	1.0	nt	0.69
O=P(c1ccccc1)(c1ccccc1)c1cc(Br)cc(Br)c1OCCO	-13%	1.7	i	1.4	4.3	-1.3	0.64
CCCCCCSc1nnc(-c2cnn(-c3ccccc3)c2-n2cccc2)n1C	28%	4.6	nt	1.9	nt	-4.5	0.73

The closing five entries of the section above are carried over, then new ones follow:
SMILES	Vif TR-FRET	UCH37 inh	FGF22 binding	HNF4A DNA FP	MLL AF4-AF9 inh	RanGTP-Impb inh	E coli growth
O=C(NNC(=O)c1csc(N2CCOCC2)n1)c1ccc(=O)[nH]c1	-12%	7.1	i	-24	-1.2	nt	0.68
COc1cc(C(O)c2nc3ccccc3n2C(C)C)cc(OC)c1OC (centres undefined)	nt	0.9	i	-1.9	-4.1	3.8	0.65
COc1ccc(-c2cccc(-c3cc(=O)oc4cc5c(cc34)OCO5)c2)cc1	-3%	-97	i	0.6	1.0	nt	0.69
O=P(c1ccccc1)(c1ccccc1)c1cc(Br)cc(Br)c1OCCO	-13%	1.7	i	1.4	4.3	-1.3	0.64
CCCCCCSc1nnc(-c2cnn(-c3ccccc3)c2-n2cccc2)n1C	28%	4.6	nt	1.9	nt	-4.5	0.73
CCNC(=O)Nc1ccc(OC)cc1OC	6%	0.5	i	-6.2	-1.0	0.9	0.74
CC1CCCCC1NC(=O)c1ccc(S(=O)(=O)N2CCCC2)cc1 (centres undefined)	3%	0.1	nt	-0.1	nt	-1.5	0.7
CCN(CC)CCCNC(=O)c1cc2nc3c(c(C(F)(F)F)n2n1)CCc1ccccc1-3	30%	-22	i	-3.1	1.1	1.5	0.7
COC(=O)C1=C(C(=O)OC)C(C(=O)OC)N2C=CC=CC2=C1C(=O)OC (centres undefined)	nt	nt	i	5.8	0.4	nt	nt
COc1ccc2cc(CN(CC3CCCO3)S(=O)(=O)c3ccccc3)c(=O)[nH]c2c1 (centres undefined)	14%	-4.8	nt	-2.8	nt	-1.6	0.61
CC(C)(C)C1CCC(OC(=O)c2cncc(Br)c2)CC1 (centres undefined)	-4%	3.0	i	-3.6	-2.3	1.4	0.72
CCc1ccc(NC(=O)CC2C(=O)N(c3cccc(C)c3)C(=O)N2C2CC2)cc1 (centres undefined)	5%	3.0	i	2.4	0.7	0.8	0.78
CCOc1ccc(CCNC(=O)c2sc3nc4n(c(=O)c3c2C)CCC4)cc1OCC	nt	4.3	i	-3.7	1.6	1.1	0.66
CCCn1cnnc1CNC(=O)[C@H]1O[C@@H](n2ccc(=O)[nH]c2=O)[C@H](O)[C@@H]1O	nt	nt	i	-0.1	-3.1	nt	nt
O=C(c1ccccc1NS(=O)(=O)c1ccccc1[N+](=O)[O-])N1CCOCC1	nt	2.0	nt	-0.3	nt	6.0	0.72
N#CC1=C(N)SC(N)=C(C#N)C1Cc1ccccc1	-1%	-1.5	i	114	-2.4	62*	0.64
COc1ccc(CN(C)C(=O)CNC(=O)c2cccs2)c(OC)c1	2%	-2.1	i	-0.8	-6.6	nt	0.68
Cc1ccc(S(=O)(=O)N2C[C@@H]3[C@H]4CC[C@H](C4)[C@@H]3[C@@H](C)[C@@H]2c2cccn2Cc2ccccc2)cc1	2%	0.2	i	-3.2	-1.7	nt	0.71
CC(C)(C)NC(=O)CN(C(=O)CS(=O)CC(=O)Nc1ccc(F)cc1)c1ccc2c(c1)OCCO2 (centres undefined)	-4%	1.4	i	2.7	-0.1	?	0.67
Cc1nc2sc(C(c3cccs3)N3CCC4(CC3)OCCO4)c(O)n2n1 (centres undefined)	14%	3.8	i	-1.5	0.1	1.1	0.63
CC1(C)CC(=O)C(C(N)=NC(=O)c2ccccc2)=C(O)C1	-5%	1.2	i	2.5	-0.9	3.9	0.65
CN(C)S(=O)(=O)c1ccc(C(=O)Nc2ccccc2SCCC#N)cc1	-10%	-0.6	i	-1.2	-2.6	-1.5	0.7
Cc1nn(C)cc1CNC(=O)C1CCC(=O)N(Cc2cccc(C(F)(F)F)c2)C1 (centres undefined)	5%	-0.6	i	-2.0	-3.2	1.7	0.67
CC(C)(C)S(=O)N1Cc2cc(=O)n(Cc3ccccc3)cc2[C@@H]1CCO (some centres undefined)	-5%	-0.9	i	-3.9	0.2	nt	0.69
O=C1c2ccccc2NC(c2ccccc2)N1/N=C/c1ccccc1 (centres undefined)	0%	nt	nt	-0.8	nt	-3.8	nt
CCc1noc(C)c1C(=O)NCCc1ccc(OC)c(OC)c1	15%	2.9	nt	0.5	nt	?	0.71
C=CCn1c(N)cc(=O)nc1SC(C)C(=O)Nc1ccc(C(=O)OCC)cc1 (centres undefined)	nt	2.0	i	0.1	-2.7	3.3	0.69
O=C1Nc2ccccc2C1(O)Cc1ccccn1 (centres undefined)	6%	-1.4	i	2.7	-22	7.9	0.74
COc1ccc(C2C(C(=O)c3ccco3)=C(O)C(=O)N2CCN2CCOCC2)cc1 (centres undefined)	nt	0.9	i	0.7	5.0	1.7	0.54
CC(=O)c1cc(-c2ccccc2)n(CCC(=O)NC2CCCCCCC2)c1C	nt	3.2	i	-1.4	-0.7	1.7	0.69
COc1ccc(NC(=S)N2CCN(CCN=CC3=C(O)CC(c4ccccc4)CC3=O)CC2)cc1 (centres undefined)	-7%	1.3	i	2.1	0.5	-2.0	0.7
COc1cc(/C=C2/SC(=NCc3ccccc3)N(Cc3ccccc3)C2=O)ccc1O	-4%	4.0	nt	4.2	nt	2.6	nt
COc1ccc(C(=O)NC(=O)CSc2nnc(-c3ccco3)n2-c2ccccc2)cc1	-6%	6.1	nt	1.0	nt	nt	0.73
CN(C)C1CN(Cc2cn(Cc3cccc(C(F)(F)F)c3)nn2)S(=O)(=O)C1 (centres undefined)	nt	nt	i	3.4	-0.2	nt	nt
O=C(Nc1ccc([N+](=O)[O-])cc1)NN1CCCCCC1	-1%	2.4	i	2.3	-3.5	nt	0.55
Cc1ccc(-c2noc(-c3cc4ccccc4oc3=O)n2)cc1	-2%	-11	nt	1.7	nt	0.8	0.75
Clc1ccc(CNc2cnccn2)cc1Cl	0%	-111	i	-4.8	-0.2	?	0.66
O=C(O)CCC(=O)NCC(=O)c1ccc(F)cc1	nt	3.4	i	-3.1	2.3	2.8	0.69
O=C(COC(=O)c1cccc(Br)c1)NC(=O)NC1CCCC1	-4%	1.5	i	2.8	-0.7	nt	0.6
O=C(N/N=C/C(Cl)=C/c1ccccc1)c1ccc2c(c1)OCO2	-10%	nt	i	-1.3	-0.4	nt	nt
O=c1cc(N2CCc3ccccc32)[nH]c(=O)n1-c1ccccc1Cl	1%	1.0	i	1.7	-0.8	nt	0.65
CC1CCCCN1C(=O)c1ccc(OC2CCN(S(=O)(=O)N(C)C)CC2)cc1 (centres undefined)	1%	-2.3	i	2.6	-2.5	-0.1	0.66
CC(C)NC(=O)c1c(O)c2cccc3c2n(c1=O)CCC3	nt	-1.9	i	0.2	-5.9	-4.4	0.75
O=C(Nc1ccc(Cl)cc1)N1CCC(c2ccccc2)C1 (centres undefined)	-7%	2.0	nt	-1.9	5.7	0.4	0.56
COCC(C)n1c(SCc2nc(N)nc(Nc3ccccc3C)n2)nc2ccccc2c1=O (centres undefined)	-4%	6.9	nt	5.7	nt	1.1	0.73
COC(=O)c1ccc(N2CCN(c3ccccc3)CC2)c(N)c1	-6%	-26	i	4.5	-5.3	-0.3	0.7
COc1ccc(C(=O)CC(=O)C(=O)Nc2cc(OC)c(OC)c(OC)c2)cc1	8%	7.1	i	-0.5	9.5	-4.8	0.63
CN1CCN(C(=O)c2ccc(-c3ccc(F)c(F)c3)c3ccoc23)CC1	nt	nt	i	1.9	3.4	nt	nt
CN(C)c1ncc(S(=O)(=O)c2ccccc2)c(=O)[nH]1	-7%	4.9	i	4.9	-2.3	-1.3	0.66
CS(=O)(=O)N1CCCC(C(=O)Nc2ccc(F)cc2)C1 (centres undefined)	0%	1.4	i	3.6	-5.7	-1.5	0.61
CCOc1cc(/C=C/C(=O)Nc2ccc(C(=O)NCCN(CC)CC)cc2)ccc1OCC(C)C	9%	-79	i	1.1	31*	?	0.67
CC(=O)c1cccc(NC(=O)C23CC4CC(C2)CC(n2cncn2)(C4)C3)c1	-6%	1.1	nt	-1.3	nt	1.9	0.69
O=C(Nc1ccc(-n2cnnn2)cc1)C1CCCN1C(=O)NC1CCCCC1 (centres undefined)	17%	1.2	nt	0.8	nt	3.9	0.68
COCCCNc1ncnc2nc[nH]c12	?	0.2	i	2.4	7.3	-2.9	0.71
O=C1NC[C@@H](CCCCN2CCN(CCC3CCCCC3)C(=O)C2=O)N(CC2CCCCC2)C1=O	nt	nt	i	1.4	-4.6	nt	nt
Continuation:
SMILES	Vif TR-FRET	UCH37 inh	FGF22 binding	HNF4A DNA FP	MLL AF4-AF9 inh	RanGTP-Impb inh	E coli growth
CC(C)=CCCC(C)CN1CCC(n2nccc2NC(=O)c2ccccc2)CC1 (centres undefined)	nt	1.6	i	4.5	1.8	8.9	0.71
Cc1ccc(CNc2cnccn2)s1	3%	4.1	i	6.9	-14	1.1	0.68
CCOc1ccc(-c2nnc(SCC(=O)N3CCCC3)o2)cc1	nt	-0.9	i	0.4	0.8	0.2	0.65
O=C(N/N=C/c1cccc2ccccc12)c1ccc(CN2CCOCC2)cc1	0%	nt	i	5.2	-0.1	-5.3	nt
Cc1ccc(S(=O)(=O)N(C)C)cc1NC(=O)COC(=O)CNC(=O)C12CC3CC(CC(C3)C1)C2	-7%	-0.1	i	3.5	2.2	1.6	0.69
C=CCn1c(O)c(N=NC(=S)Nc2ccccc2F)c2cc(S(=O)(=O)N3CCOCC3)ccc21	nt	6.5	i	-2.3	8.6	18*	0.72
CC(=O)Nc1ccc(S(=O)(=O)N2CCC(C(=O)Nc3nccs3)CC2)cc1	nt	5.3	i	-0.1	-2.4	?	0.7
Cc1ccc(N(C(C)C(=O)O)S(=O)(=O)c2c(C)[nH]c(=O)[nH]c2=O)cc1 (centres undefined)	-1%	-0.4	i	5.8	-1.4	0.5	0.74
CCOc1ccc(NC(=O)CCSc2ccc3ccccc3n2)cc1	-325%	6.0	i	-2.2	1.2	?	0.67

This is a subset, so the mix of outcomes need not match the whole.
